# VDR inh – Inhibitors of the vitamin D receptor (VDR): qHTS. 0.93% of 400,000 active. Vitamin D3 receptor (Homo sapiens), P11473. VDR-SRC2-3 peptide fluorescence polarization, 2 h. Potency, µM, for the others: max response, negative = inhibition, usual class: inhibitors; active = well fitted inhibition curve with a large enough effect; inconclusive = small, poorly fitted or top-dose-only effect, or another doubt; inactive = no such curve, though single readings can be large or run the other way; also: series mostly up to about 120 µM
# Target sequence (P11473 whole entry, looked up): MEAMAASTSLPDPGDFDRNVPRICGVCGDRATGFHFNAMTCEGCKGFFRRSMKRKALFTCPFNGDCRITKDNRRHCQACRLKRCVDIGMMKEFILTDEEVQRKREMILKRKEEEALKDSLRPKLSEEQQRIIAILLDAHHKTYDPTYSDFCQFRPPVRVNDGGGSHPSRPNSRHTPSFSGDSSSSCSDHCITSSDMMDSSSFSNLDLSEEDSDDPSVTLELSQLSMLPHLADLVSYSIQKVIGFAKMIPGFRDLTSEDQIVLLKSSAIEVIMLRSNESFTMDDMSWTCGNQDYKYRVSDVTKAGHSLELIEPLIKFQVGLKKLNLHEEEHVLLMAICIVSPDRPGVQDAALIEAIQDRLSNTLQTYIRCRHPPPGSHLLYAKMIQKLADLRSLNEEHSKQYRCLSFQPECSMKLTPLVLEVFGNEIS
#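 The screen uses fluorescence polarization to detect compounds that interfere with recruitment of the SRC2-3 coactivator peptide to VDR; plates are read after 2 h at room temperature.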
# An asterisk follows results filed as active; ? = inconclusive. % is scaled to controls: 0 for no effect and ±100 for the full control effect; potency is read from the fitted curve at half-maximal effect. Not all compounds are listed. The share of hits here may be higher or lower than overall.
VDR inh	SMILES
-2.1%	COc1ccc(NC(=O)N2CCC3(CC2)CCN(C(=O)c2ccncc2)CC3)cc1
-3.8%	CC1CN(Cc2ccc(Cl)cc2Cl)CC(C)O1 (centres undefined)
12.6%	CC(C)Nc1nc(Cl)nc(NNC(=O)C(C)Oc2ccccc2)n1 (centres undefined)
8.3%	CCCC(=O)NCC(c1ccc2c(c1)OCO2)N1CCN(c2ccccc2)CC1 (centres undefined)
4.8%	CCOc1ccc(Nc2ncnc3c2cnn3-c2ccccc2)cc1
-0.7%	COc1ccc(CNc2ccc3c(c2)CCC3)cc1Br
-6.9%	O=C(NCCC1CCCCN1S(=O)(=O)c1ccccc1)C(=O)NCc1cccnc1 (centres undefined)
-11.1%	O=C(Nc1ccccn1)C(=O)Nc1ccccn1
-2.7%	O=c1[nH]cc(-c2ccc(Br)cc2)n1Cc1ccccc1
-3.7%	O=C(Nn1c(Cc2ccccc2)nc2ccccc2c1=O)c1c(O)c2cccc3c2n(c1=O)CCC3
11.8%	NC(=O)CN(N=Nc1cccc([N+](=O)[O-])c1)c1cccc([N+](=O)[O-])c1
-14.2%	Nc1ccn(Cc2ccccc2F)n1
-8.9%	COc1cc(/C=N/n2cnnc2)ccc1OCc1ccc(C)cc1
-0.3%	CC(C)NC(=O)c1ccc2c(c1)N(CC(=O)Nc1ccccc1F)C(=O)C(C)(C)O2
-0.1%	CCOc1cccc2sc(NC(=O)c3ccc(S(=O)(=O)N4CCCCC4)cc3)nc12
-2.2%	COc1ccc(C(=O)NC2CCN(CC(=O)NCc3ccccc3)CC2)cc1
-9.9%	COc1ccc(/C=C/C(=O)Nc2cccc(S(=O)(=O)N3CCOCC3)c2)cc1OC
-0.7%	c1cncc(-c2cncnc2NC2CCNCC2)c1
-0.1%	S=C(NCc1ccco1)Nc1ccc(Cl)cc1Cl
0.6%	C/C(=N\NC(=O)C(C)Nc1cccc(Cl)c1)c1ccc([N+](=O)[O-])cc1 (centres undefined)
6.5%	O=C(CSc1nnc(Cc2ccccc2)o1)N1CCCC1
26.0%	Cc1nn(CC(=O)Nc2nnc(C(C)C)s2)c(=O)c2ccccc12
?	O=C(COC(=O)c1ccccc1[N+](=O)[O-])Nc1nnc(-c2ccccc2)o1
-18.3%	CCc1ccc(CN(C)C(=O)C2CCC(=O)N(CCCN3CCCC3=O)C2)cc1 (centres undefined)
6.3%	CCCCn1c(SCC(=O)Nc2ccc(F)cc2)nc2c(sc3ccccc32)c1=O
-5.3%	CCS(=O)(=O)NCC(c1cccnc1)N1CCN(c2ccc(F)cc2)CC1 (centres undefined)
-2.9%	S=c1[nH]ncn2c1cc1oc3ccccc3c12
-2.1%	Cc1cc(C(=O)N2CCOCC2)n(-c2ccccc2)n1
-5.8%	O=C(Nc1ccc2[nH]c(=O)[nH]c2c1)c1ccc([N+](=O)[O-])o1
-6.1%	O=C(COc1ccc(Br)cc1)OCCN1CCCCC1
4.5%	CCC(C)NC(=O)c1cc(Sc2cccc(Cl)c2)nc2ccccc12 (centres undefined)
?	O=C(c1ccco1)N1CCC2(CC1)CN(c1ccccc1)C2
7.3%	O=C(CC1C(=O)NCCN1Cc1ccccc1C(F)(F)F)NCCN1CCOCC1 (centres undefined)
6.0%	COc1ccc(NC(=O)N/C=C/c2ccccc2)cc1
-5.4%	CCCCOc1ccc(CN(C)c2ncnc(N)n2)cc1
8.9%	N#Cc1ccccc1OCC(=O)N1CCN(c2ccccc2F)CC1
-15.8%	CN(C)c1ccc(CN(CC2CCCO2)C(=O)c2cc3ccccc3o2)cc1 (centres undefined)
-7.2%	COCCCn1c(C(=O)N2CC(C)OC(C)C2)cc2c(=O)n3cccc(C)c3nc21 (centres undefined)
6.2%	N#Cc1c(-c2ccccc2)nc2n(-c3ccccc3)nc(C(=O)Nc3ccccc3)n2c1=O

# 19 structures out of the list, ordered by molar mass, high to low:
VDR inh	SMILES
6.2%	N#Cc1c(-c2ccccc2)nc2n(-c3ccccc3)nc(C(=O)Nc3ccccc3)n2c1=O
7.3%	O=C(CC1C(=O)NCCN1Cc1ccccc1C(F)(F)F)NCCN1CCOCC1 (centres undefined)
-7.2%	COCCCn1c(C(=O)N2CC(C)OC(C)C2)cc2c(=O)n3cccc(C)c3nc21 (centres undefined)
-18.3%	CCc1ccc(CN(C)C(=O)C2CCC(=O)N(CCCN3CCCC3=O)C2)cc1 (centres undefined)
-5.3%	CCS(=O)(=O)NCC(c1cccnc1)N1CCN(c2ccc(F)cc2)CC1 (centres undefined)
-15.8%	CN(C)c1ccc(CN(CC2CCCO2)C(=O)c2cc3ccccc3o2)cc1 (centres undefined)
4.5%	CCC(C)NC(=O)c1cc(Sc2cccc(Cl)c2)nc2ccccc12 (centres undefined)
?	O=C(COC(=O)c1ccccc1[N+](=O)[O-])Nc1nnc(-c2ccccc2)o1
0.6%	C/C(=N\NC(=O)C(C)Nc1cccc(Cl)c1)c1ccc([N+](=O)[O-])cc1 (centres undefined)
26.0%	Cc1nn(CC(=O)Nc2nnc(C(C)C)s2)c(=O)c2ccccc12
-6.1%	O=C(COc1ccc(Br)cc1)OCCN1CCCCC1
8.9%	N#Cc1ccccc1OCC(=O)N1CCN(c2ccccc2F)CC1
6.5%	O=C(CSc1nnc(Cc2ccccc2)o1)N1CCCC1
-0.1%	S=C(NCc1ccco1)Nc1ccc(Cl)cc1Cl
?	O=C(c1ccco1)N1CCC2(CC1)CN(c1ccccc1)C2
-5.8%	O=C(Nc1ccc2[nH]c(=O)[nH]c2c1)c1ccc([N+](=O)[O-])o1
6.0%	COc1ccc(NC(=O)N/C=C/c2ccccc2)cc1
-0.7%	c1cncc(-c2cncnc2NC2CCNCC2)c1
-2.9%	S=c1[nH]ncn2c1cc1oc3ccccc3c12

# Source: PubChem BioAssay
